# 2A firefly: FMDV 2A StopGo reporter, firefly signal; HEK cells with a luciferase reporter of 2A StopGo recoding; Potency, µM (doses to about 57.5 µM), for the others: at the highest dose signal change, negative = less light; 120,000 tested, 0.23% active; active = well fitted falling curve with a large enough effect; inconclusive = small, poorly fitted or top-dose-only effect; inactive = no such curve, though single readings can be large or run the other way; note: nearly all actives have a fitted effect of over 60% in size; overnight with compound
# 2A Renilla: lowers the Renilla signal of an FMDV 2A StopGo reporter; 120,000 tested, 0.32% active; AID 1745857; Potency, µM (series often up to 57.5 µM), without a hit: at the top dose signal change, negative = less light; HEK cells with a luciferase reporter of 2A StopGo recoding; active means well fitted falling curve with a large enough effect; inconclusive means small, poorly fitted or top-dose-only effect; inactive means no such curve, though single readings can be large or run the other way; note: nearly all actives have a fitted effect of over 55% in size; overnight with compound
# Starred values were filed as active, the others as inactive; ? = inconclusive; & = joins results of further samples; [ ] = dose if it differs, or a comment. % is set by controls: 0 for no effect and ±100 for the full control effect; potency is the fitted concentration of half-maximal effect. These rows are one share of the data. The share of hits here may be higher or lower than overall.
SMILES,2A firefly,2A Renilla
O=C(NC(CO)C(=O)O)OCc1ccccc1 (stereo not given),-4%,2%
COc1ccc(C(=O)N2CCN(c3nc4nc(C)ccc4o3)CC2)cc1,-1%,-22%
CN(Cc1ccccc1)C(=O)C1CCN(Cc2cccc3ccccc23)CC1,-9%,-6%
COC(=O)C(C)Oc1ccc2c(=O)c(-c3ccccc3OC)c(C(F)(F)F)oc2c1 (stereo not given),3%,1%
O=C(c1ccncc1)N(CCc1ccccc1)Cc1cccs1,22%,12%
NC(=S)N/N=C/c1cccc(Cl)c1Cl,0%,-27%
O=C(c1cn2ccccc2n1)N1CCN(c2cccc(Cl)c2)CC1,?,?
COc1ccc(-c2cn3cccnc3n2)cc1NC(=O)c1ccccc1C(F)(F)F,-9%,5%
COc1ccc(NC(=O)CCc2nc(C3=CCN(Cc4cccc(C)c4)CC3)no2)c(OC)c1,14%,4%
CCCN(C(=O)c1cccs1)c1nc(-c2ccccc2)cs1,67%[activator],0%
COc1ccc(NC(=O)c2nn(C)c(=O)c3ccccc23)cc1OC(F)F,8%,6%
Cc1ccc(-n2nc3c(=O)n(CC(=O)NCCC(C)C)nc(C)c3c2C)cc1,-9%,-3%
COc1ccc(-n2cc(-c3ccccc3)c3c(NCCc4ccc(OC)c(OC)c4)ncnc32)cc1,?,-2%
COc1cccc2c1cc1c(=O)n(CC(=O)NC3CC3)nc(C)n12,-3%,-15%
C=CCn1c(Oc2ccccc2F)nc2c1c(=O)n(C)c(=O)n2C,-6%,-7%
Cc1ccccc1CSc1nnc(C2CCN(C(=O)OC(C)(C)C)CC2)o1,6%,1%
CCOc1ccc(NCc2cccn2-c2nnc(N3CCC(C(=O)NCCc4ccc(OC)c(OC)c4)CC3)s2)cc1,?,?
CC1CCCN(c2nnc(NC(=O)Nc3ccc(F)c(Cl)c3)s2)C1 (stereo not given),4%,-5%
COc1cccc(C(=O)OCc2nc(N)c3ccccc3n2)c1,17%,-15%
O=C(OCC(=O)N1CCNC1=O)c1cc2c(F)cccc2s1,-6%,-13%
COC(=O)c1ccc(/C=C/C(=O)NCCC(c2ccccc2)c2ccccc2)cc1,12%,13%
Cc1cc(CC(=O)O)c(C)n1-c1ccc(Cl)cc1,-18%,-13%
CC(Oc1ccc(Cl)cc1)c1nc(-c2ccc(Cl)cc2)no1 (stereo not given),0%,3%
Cc1ccc(S(=O)(=O)N2CCCC(C(=O)O)C2)cc1F (stereo not given),1%,-7%
Cc1ccc(-c2nc(-c3nc(-c4cccs4)cs3)sc2C)cc1,108%[activator],19%
COc1ccc2cc3cc(C(=O)N4CCN(c5cccc(C(F)(F)F)c5)CC4)sc3nc2c1,14%,-10%
O=S(=O)(Cc1csc(-c2ccccc2)n1)Cc1ccccc1F,49%[activator],22%
CCOc1cccc(C(=O)Nc2ccc(-c3nc4cc(C)cc(C)c4o3)cc2)c1,13%,-6%
O=C(NC1CCCC1)c1ccc2c(=O)n(Cc3ccccc3)c(SCc3ccccc3F)nc2c1,-7%,-9%
N#Cc1ccccc1OCC(=O)NC(=O)NCc1ccccc1,14%,7%

# The last two compounds of the part before come first, to join the parts.
SMILES,2A firefly,2A Renilla
O=C(NC1CCCC1)c1ccc2c(=O)n(Cc3ccccc3)c(SCc3ccccc3F)nc2c1,-7%,-9%
N#Cc1ccccc1OCC(=O)NC(=O)NCc1ccccc1,14%,7%
O=C(Nc1ccc(Br)cc1Cl)c1cc(=O)c2ccccc2o1,0%,3%
COc1ccccc1CNc1nc(-c2ccco2)nn1S(C)(=O)=O,0%,46%[activator]
CCSC(SCC)C(O)C(O)C(O)CO (stereo not given),15%,8%
Clc1ccc(-c2nc(NCc3ccc4c(c3)OCO4)c3ccccc3n2)cc1,-6%,-7%
CC(CNC(=O)c1ccc2c(c1)nc1n2CCOC1)c1ccccc1 (stereo not given),78%[activator],-12%
Cc1cc(F)ccc1S(=O)(=O)N(Cc1nccn1C)C1CC1,-2%,-8%
COc1cc(/C=C/c2nc3ccccc3s2)cc(OC)c1,0%,13%
Cc1ccc(NC(=O)CCc2c(C)nn(-c3ccc(N4CCCCC4)nn3)c2C)cc1F,45%[activator],?
NC(=O)C(Sc1ncc(C(F)(F)F)cc1Cl)c1ccc(F)cc1 (stereo not given),6%,14%
COc1ccc(OC)c(CCNC(=O)c2cc3c(s2)-c2c(C)cccc2OC3)c1,-7%&-10%,-8%&14%
CNC(=O)c1cccc(CNC(=O)c2nccnc2N)c1,24%,6%
CCOC(=O)c1cnc(Nc2ccccc2OC)c2ccccc12,25%,-2%
Cc1cccc(-c2noc(-c3cccnc3NCc3ccco3)n2)c1,156%[activator],-11%
Cc1cc(C(=O)OCC(=O)Nc2cccc(F)c2)c2ccccc2n1,17%,11%
COc1ccc2nc(SCC(=O)Nc3ncccn3)[nH]c2c1,24%,0%
CCCCNS(=O)(=O)c1ccc2nc(-c3cccnc3)cc(C(=O)NC(C)C)c2c1,0%&-8%,209%&3%[activator]
CC(=O)NCCc1ccc(-c2csc(-c3ccc(C)cc3)n2)s1,?,17%
O=C(/C=C/c1cccc(Cl)c1)c1ccc(OC(F)F)cc1OC(F)F,72%[activator],30%[activator]
CCOc1ccccc1NC(=O)CCn1cnc2c1c(=O)n(C)c(=O)n2C,-7%,-11%
CCCCN(C1CCS(=O)(=O)C1)S(=O)(=O)c1ccc(OC)c(C)c1 (stereo not given),-4%,70%[activator]
O=C(COc1ccc2c(c1)CCC2)NCc1ccccc1CN1CCCCC1,-9%,-7%
COc1ccc(-c2nc(C(=O)Nc3cccc(C(C)=O)c3)nn2-c2ccc(Cl)cc2)cc1,-12%,-8%
COc1ccc(Cn2c(C(=O)O)c(CNCCc3cc(OC)ccc3OC)c3ccc(C)cc32)cc1,?,39%[activator]
Cc1ccc(-c2noc(-c3ccc(NCc4ccco4)c([N+](=O)[O-])c3)n2)cc1,125%[activator],7%
CCCCNC(=O)c1cnn2c(C)c(Cc3c(C)cc(C)cc3C)c(C)nc12,2%,-18%
CCc1cccc(NC(=O)CCc2nc3cccnc3n2-c2ccccc2)c1,-18%,-13%
O=C(Cc1ccc(Cl)cc1)Nc1ccc2oc(-c3ccccc3F)nc2c1,37%&76%[activator],12%&3%
CCc1ccc2[nH]c(C)c(CCN)c2c1,0%,-4%
CN(CC(=O)NC1CCCCNC1=O)Cc1cccc(F)c1 (stereo not given),5%,-5%
CCOc1ccc(CNC(=O)c2cc3c(=O)n(C)c4ccccc4c3s2)cc1,-13%,8%
Cc1ccc(C(C)C)c(OCC(=O)NCC2(N3CCOCC3)CCCCC2)c1,-24%,-15%
COc1ccc(OC)c(-c2nc3c(C#N)c[nH]n3c2NC2CCCCC2)c1,-5%,-3%
CN(Cc1ccc(C(=O)NC2CC2)cc1)S(=O)(=O)c1ccc2c(c1)CCCC2,-7%,13%
COc1ccc(Br)c(C(=O)OCC(=O)c2cc(C)ccc2C)c1,26%,4%
CCc1ccc2nc(-c3ccccc3C)cc(C(=O)O)c2c1,-11%,?
COc1ccc(-c2nc(CSCC(=O)N3CCOCC3)c(C)o2)cc1OC,14%,7%
COc1ccc(-c2ccc(=O)n(CC(=O)Nc3ccc(C)cc3C)n2)cc1,-13%,8%
CC(=O)CC/C=C(\C)CC/C=C(\C)CC/C=C(\C)CCC=C(C)C,-13%[11.5 µM],0%
CN(C)C(CNC(=O)CCc1ncc(-c2ccc(F)cc2)o1)c1cccc(F)c1 (stereo not given),98%[activator],-1%
CNc1c(NC(=O)Nc2ccc(Cl)cc2)c(=O)oc2ccccc12,7%,-3%

# 3 entries from above, as labelled records.
CN(C)C(CNC(=O)CCc1ncc(-c2ccc(F)cc2)o1)c1cccc(F)c1 (stereo not given)
- 2A firefly: 98%[activator]
- 2A Renilla: -1%
CN(Cc1ccc(C(=O)NC2CC2)cc1)S(=O)(=O)c1ccc2c(c1)CCCC2
- 2A firefly: -7%
- 2A Renilla: 13%
CCc1ccc2nc(-c3ccccc3C)cc(C(=O)O)c2c1
- 2A firefly: -11%
- 2A Renilla: ?

# Next part.
SMILES,2A firefly,2A Renilla
CCSc1oc(-c2ccco2)nc1S(=O)(=O)c1ccc(F)cc1,15%,74%[activator]
Cc1ccc(CCNC(=O)CCCn2c(=O)c3cccn3c3ccc(F)cc32)cc1,-4%,4%
Cc1cc(=O)n2nc(N3CCC(C(=O)Nc4ccc(Br)c(C)c4)CC3)sc2n1,-19%,-16%
COc1cc(C(=O)/C=C/c2ccccc2Br)ccc1OCC(=O)O,2%,-1%
CCN(Cc1cn(Cc2ccccc2)nn1)S(=O)(=O)c1ccc(F)cc1Br,-1%,22%
COc1ccccc1NC(=O)C1=C(C)Nc2nc(SCc3ccccc3F)nn2C1c1cccnc1 (stereo not given),-17%,-14%
Cc1c(-c2ccccc2)cc(-c2ccccc2)nc1-c1ccccc1,0%,3%
CCOc1ccccc1NC(=O)c1cnc(N2CCOCC2)c2ccccc12,10%&-17%,0%&15%
CC(CC#N)NC(=O)c1cc2ccccc2cc1NC(=O)OC(C)(C)C (stereo not given),-10%,4%
CCN(CC)c1cc2c(cc1F)c(=O)c(S(=O)(=O)c1ccc(OC)cc1)cn2Cc1ccccc1,3%,26%
NS(=O)(=O)c1ccc(N/N=C/c2cccc(Oc3ccccc3)c2)c([N+](=O)[O-])c1,12%,-21%
CC(=O)Nc1cccc(NC(=O)c2ccc3c(c2)NC(=O)CS3)c1,31%[activator],-3%[1.06 µM]
CCOc1cccc(C(=O)N(Cc2ccc(C)o2)C2CCS(=O)(=O)C2)c1 (stereo not given),15%,-5%
CCC1CCCCN1S(=O)(=O)c1ccc(NC(=O)c2cc(-c3ccc(Cl)cc3)on2)cc1 (stereo not given),22%,9%
CCCn1c(=N)c(C(=O)NC(C)c2ccccc2)cc2c(=O)n3ccccc3nc21 (stereo not given),-10%,2%
CCC(C(=O)Nc1ccc(C(C)=O)cc1)n1cnc2nc3c(cc2c1=O)CCCC3 (stereo not given),-6%,-7%
Cc1cnc(C(=O)OCc2ccc(-c3ccccc3C#N)cc2)cn1,23%,4%
CCc1ccc(NC(=O)c2ccc(Cn3nc(N4CCN(c5ccccc5)CC4)ccc3=O)o2)cc1,?,?
CCOC(=O)c1ccc(Oc2c(C)oc3cc(O)ccc3c2=O)cc1,13%,12%
CCCCOC(=O)COc1ccc2c(C)c(CCC)c(=O)oc2c1,9%,-4%
O=C1Cc2cc(C(=O)CSc3ccc4c(c3)OCCCO4)ccc2N1,23%,-3%
CCOC(=O)C1CCCN(S(=O)(=O)c2ccc(F)c(C(=O)Nc3ccc(F)c(F)c3)c2)C1 (stereo not given),-12%,7%
CC(=O)Nc1scc(-c2cc(C)ccc2C)c1C#N,5%,5%
CCOc1cc(/C=C(\C#N)C(=O)OC)ccc1OCc1cccc(C(F)(F)F)c1,12%,6%
CC(=O)Nc1ccc(C)cc1-c1nnc(SCC(=O)Nc2ccc(Cl)c(Cl)c2)[nH]c1=O,-5%,7%
COc1ccc(Cn2c(SCc3ccc(C(=O)NC4CCCCC4)cc3)nc3ccncc32)cc1,-33%,?
CCS(=O)(=O)Nc1cccc(C2=NN(S(C)(=O)=O)C(c3ccccc3C)C2)c1 (stereo not given),-5%,2%
CC(C)(C)C(=O)NCCCCNC(=O)C(C)(C)C,22%,9%
CCN(CC)C(=O)C1CCN(S(=O)(=O)c2c(C)noc2/C=C/c2cccc(OC)c2)CC1,-15%,-4%
Cc1ccc(NC(=O)c2ccc(-c3nn(C)c(=O)c4ccccc34)cc2)cc1,13%,11%

# Some of these compounds in order of SMILES length, highest first.
SMILES,2A firefly,2A Renilla
CC(=O)Nc1ccc(C)cc1-c1nnc(SCC(=O)Nc2ccc(Cl)c(Cl)c2)[nH]c1=O,-5%,7%
CCOc1cc(/C=C(\C#N)C(=O)OC)ccc1OCc1cccc(C(F)(F)F)c1,12%,6%
Cc1ccc(NC(=O)c2ccc(-c3nn(C)c(=O)c4ccccc34)cc2)cc1,13%,11%
CC(=O)Nc1scc(-c2cc(C)ccc2C)c1C#N,5%,5%

# More structures follow.
SMILES,2A firefly,2A Renilla
COc1cccc2c1Oc1ncccc1N(c1ccc(C(=O)NCc3ccccc3Cl)s1)C2,0%,0%
C/C(CC12CC3CC(CC(C3)C1)C2)=N\NC(=O)C1CC1,23%,7%[1.06 µM]
COc1ccc(Cl)cc1CNCCSc1nnnn1C,-11%,0%
CCOc1cc(/C=C2/NC(=O)NC2=O)cc(Br)c1OCC,-4%,-1%
COc1ccccc1OCC(O)CO (stereo not given),-6%,-1%
Cc1ccc(S(=O)(=O)NCc2ccc(C(=O)NCCc3cccc(C)c3)cc2)cc1,-19%,3%
Cc1oc(-c2cccs2)nc1C(=O)N1CCC(NC(=O)C2CC2)CC1,-12%,-15%
COc1cc(/C=C(/C#N)C(=O)c2c[nH]c3cc(F)ccc23)cc(OC)c1,-11%,-2%
NCCc1ccc(OCc2ccccc2)cc1,0%,1%
O=C(c1cccs1)c1cn(CCOc2ccccc2Cl)c2ccccc12,-12%,-8%
Cc1ccc(OC(C)C(=O)NN)cc1 (stereo not given),13%,37%[activator]
COc1ccc2c(CCNC(=O)c3ccc(C)cc3)c[nH]c2c1,55%[activator],55%[activator]
CCc1ccc(NC(=O)CC2C(=O)N(c3ccc(Cl)cc3)C(=O)N2Cc2ccco2)cc1 (stereo not given),34%[activator],41%[activator]
Cc1cccc(NC(=O)CSc2ccc(-c3sc(-c4ccccc4)nc3C)nn2)c1C,-19%,-12%
NC(=O)c1ccc(S(=O)(=O)NCCc2ccc(-n3cccn3)cc2)cc1,21%,144%[activator]
O=C(Nc1ccc(OCc2cc(=O)n3ccsc3n2)cc1)c1ccc(F)cc1,-3%,-2%
COc1cccc(CC(=O)NC(c2cccs2)C2CCCC2)c1 (stereo not given),57%[activator],19%
